Screening data from PubChem.
Bead autofluor: counter-screen for toxin protease inhibitors: compound fluorescence. 360,000 compounds, 3.1% hits. fluorescence intensity (no concentration beside the values). compound autofluorescence counterscreen, microsphere flow cytometry; stronger effect = higher value;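 active = at least 3 SD above the mean of all compounds, about 16000 in these data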;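 note: 100 nL of 1 mM stock went into each well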
Numbers without * were called inactive. This is a subset; rates above refer to the full screens.

SMILES	Bead autofluor
COc1ccccc1N1CCN(S(=O)(=O)CCNC(=O)/C=C/c2ccc3c(c2)OCO3)CC1	3786
CSc1ncnc2c1ncn2CCCNc1ccc(C)c(C)c1	3025
CC(NC(=O)C1CCN(Cc2ccccc2)CC1)c1cccc2ccccc12 (stereo unspecified)	3984
CCCCN1C[C@H](c2ccc(OC)cc2)[C@@H](CC(=O)Nc2ccc(Br)cc2)C1=O	3774
Nc1nnc2cc(F)ccc2n1	3818
CCCCCC(=O)N1C[C@H](n2cc(C3CC3)nn2)[C@@H](O)C[C@@H]1c1ccc(OC)cc1	3769
Cc1ccc2c(c1)C(=O)N1c3cc(C)c(C)cc3NC(=O)C1C(=O)N2 (stereo unspecified)	5637
CCCCN(C)C(=O)c1sc(=O)n(Cc2c(C)cccc2C)c1C	4252
COc1ccc(S(=O)(=O)N(C)C[C@@H]2OCc3cnnn3CCCC(=O)N([C@@H](C)CO)C[C@H]2C)cc1	3454
CCOC(=O)C1=CCN(S(=O)(=O)c2ccccc2F)C1c1cccc(Br)c1 (stereo unspecified)	6315
CCCNC(=O)C1(C)CCN(C(=O)c2ccc3snnc3c2)C1 (stereo unspecified)	2760
CN[C@H]1C[C@H]2c3cc(N4CCN(C)CC4)ccc3CCN2C(=O)[C@H]1[C@H](C)O	2735
COc1ccc(NC(=O)C[C@H]2C(=O)N(Cc3ccccc3)C[C@@H]2C)cc1	2795
O=C(NCc1ccccc1Cl)[C@H]1CCCN1C(=O)[C@H]1CCCN1	5798
CC(=O)OC[C@@H]1CN(Cc2ccccc2)C[C@H](n2cnc3c(Nc4ccccc4)ncnc32)O1	3448
C[C@@H]1CNC(=O)c2c(C(=O)Nc3cccc(Cl)c3)ncn21	3381
COCCN(C(=O)CSc1nnc(-c2ccccc2F)o1)c1c(N)n(Cc2ccccc2)c(=O)[nH]c1=O	3639
c1ccc(CNc2nc(NCc3cccs3)nc3ccsc23)cc1	2957
COC(=O)[C@@]1(Sc2ccccc2)CC(=O)N[C@@H]1c1ccccc1	5606
O=C(NCc1ccccc1Cl)c1csc([C@@H]2C[C@H](O)[C@@H](CO)O2)n1	3284
COc1cccc(C(NC(C)=O)c2nc(-c3ccoc3)cs2)c1 (stereo unspecified)	3527
CN(C)CCN1CCN(C2CN(Cc3cn(Cc4cccc(Cl)c4)nn3)S(=O)(=O)C2)CC1 (stereo unspecified)	5725
CCCCCCSc1ccc(-c2nc3cnccn3c2NC2CCCCC2)cc1	6470
COc1cccc(CNc2nc3cc(-c4cccc(OC)c4)sc3c(=O)n2C)c1	2938
O=C1NCN(c2ccccc2)C12CCN(C(c1ccccc1OC(F)(F)F)c1nnnn1-c1ccc3c(c1)OCCO3)CC2 (stereo unspecified)	5578

The list continues.
SMILES	Bead autofluor
COCCn1cnc2c1c(=O)n(CC(=O)NC1CCCCC1)c(=O)n2Cc1ccccc1	3575
C=CCOc1ccccc1CNn1c(C)n[nH]c1=S	3941
O=C(Nc1ccc(N2CCCC2)c(Cl)c1)c1ccccc1F	2999
CC1(c2nnnn2-c2ccc3c(c2)OCCO3)CCC(=O)N1CCc1c[nH]c2ccccc12 (stereo unspecified)	5245
COc1ccc([C@H]2CC(=O)C[C@@H](CCn3cc(C)nn3)O2)cc1	6069
OCCNc1ncnc2c1ncn2[C@H]1CN(Cc2ccc3c(c2)OCO3)C[C@@H](CO)O1	4280
CC(=O)Nc1ccc(NC(=O)C(NC(=O)c2ccc(Cl)cc2)C(C)C)cc1 (stereo unspecified)	4224
Nc1nc(N)nc(-c2cccc([N+](=O)[O-])c2)n1	4240
CC1(C(=O)Nc2ccc3c(c2)OCCO3)CCC(=O)N1C1CC1 (stereo unspecified)	5010
COc1ccc(Cl)cc1-c1cc(C(=O)NCc2ccccc2)[nH]n1	3769
COc1ccccc1Cc1c(C2CCCCC2)nc2ccc(Br)cn12	6448
O=C(C1CCCCC1)N1C[C@H](n2cc(C3CC3)nn2)[C@@H](O)C[C@@H]1c1ccc(Cl)cc1	2870
CC1(C(=O)NC2CCCC2)CCC(=O)N1C1CCN(Cc2ccccc2)CC1 (stereo unspecified)	5430
CC(=O)Nc1ccc(NC(=O)C2(C)Cc3c(-c4ccccc4)ccnc3O2)cc1 (stereo unspecified)	3416
COCCNC(=O)/C(C#N)=C1\N=C(NC(=O)c2ccco2)c2ccccc21	3723
COC(=O)[C@]12CCCCC=C1N(CCC1=CCCCC1)C(=O)[C@H](CC(=O)NCc1cccc3ccccc13)C2	5545
CCC(=O)N1CCCC1(C)C(=O)Nc1cc(OC)ccc1OC (stereo unspecified)	3869
O=C(Nc1cc(S(=O)(=O)N2CCOCC2)ccc1N1CCOCC1)c1cccc(Cl)c1	4177
COc1ccc(Cc2nc3ccc(C(=O)NCc4cccc(C)n4)cc3o2)cc1OC	3775
COc1ccc(S(=O)(=O)N2CCC[C@H]2C(=O)N2CCC[C@H]2C(=O)N[C@@H](C)c2ccccc2)cc1C	5367
O[C@H]1C[C@H](c2ccccc2)N(CC2CCCCC2)C[C@@H]1n1cc(-c2ccc(F)cc2)nn1	3742
N#Cc1ccccc1S(=O)(=O)N1CCN(C(=O)CN(Cc2ccco2)Cc2cccs2)CC1	3918
CC1(C(=O)Nc2ccc3c(c2)OCO3)CCN1C(=O)Cc1cc(F)ccc1F (stereo unspecified)	3013
CN(C)CCNc1nc(-c2ccccc2F)c2sccc2n1	2889
CC1(c2nnnn2-c2ccc3c(c2)OCCO3)CCC(=O)N1CCc1ccccc1F (stereo unspecified)	4209

Additional entries follow:
SMILES	Bead autofluor
CC(C)C[C@@H]1Cc2[nH]c(=S)[nH]c(=O)c2[C@H](C)O1	6031
Cc1ccc(F)cc1C(=O)N1CCCCC1c1cc(C(=O)Nc2cccc(C#N)c2)no1 (stereo unspecified)	3861
COc1ccc(-c2nc3c(C)cc(Br)cn3c2Cc2cccc(Cl)c2)cc1OC	4544
CCCS(=O)(=O)NC(=O)C1(C)CCCN(C(=O)c2cccc(Cl)c2)C1 (stereo unspecified)	3555
COc1ncnc2c1ncn2CCCNc1ccc(C)c(C)c1	2874
O=C(O)c1cc([N+](=O)[O-])ccc1-c1ccc([N+](=O)[O-])cc1C(=O)O	3809
CC(C)C[C@H]1COc2cccc(N(C)CCO)c2S(=O)(=O)N1	4057
CC(C)(C)C(=O)c1c(N)[nH]c(C(=O)c2ccccc2)c1-c1ccc(Cl)cc1	4875
COc1cccc(OC)c1C(=O)N1CCN(Cc2c[nH]c3ccccc23)CC1	4020
COc1c(C)cc(C(O)c2ncc(-c3ccccc3F)[nH]2)cc1C (stereo unspecified)	3957
CCOC(=O)[C@]12CCC=C1N(CCC1=CCCCC1)C(=O)[C@H](CC(=O)NCc1cccc3ccccc13)C2	4282
Cc1ccc(NC(=O)COC(=O)CN2CCSC2=O)cc1F	3776
COc1ccc(OC)c(NC(=O)C2(C)CCN2C(=O)CC2CC2)c1 (stereo unspecified)	3069
COC(=O)c1ccc2nc(-c3ccc(OC)c(OC)c3)c(Cc3ccccc3OC)n2c1	7168
O=[N+]([O-])c1ccc(C=NN2CCNC2=S)o1	3594
Cc1ccc(C)c(NC(=O)COC(=O)c2cccc(S(=O)(=O)N3CCCC3)c2)c1	3995
COc1ccccc1CNc1nc(NCc2ccc3occc3c2)c2sccc2n1	3943
CC(=O)Nc1ccc(-c2ccnc3c2CC(C(=O)Nc2ccc(Cl)c(C(F)(F)F)c2)O3)cc1 (stereo unspecified)	2922
O=C(Nc1cccc(Oc2ccccc2)c1)c1ccc(-n2cncn2)c2ccoc12	3868
COc1cc(NC(=O)CCl)ccc(=O)c1	2904
O=[N+]([O-])c1cccnc1C1OCCO1	3441
CCOC(=O)[C@]12CCCC=C1N(Cc1cccc3ccccc13)C(=O)[C@H](CC(=O)NCc1cccs1)C2	5109
CC(C)Oc1ccc(CN2CCC2(C)C(=O)Nc2ccc(Cl)c(Cl)c2)cc1 (stereo unspecified)	3867
CCOC(=O)[C@]12CCCC=C1N(Cc1ccco1)C(=O)[C@H](CC(=O)NCc1ccc(OC)c(OC)c1)C2	5798
O=C(Nc1c(-c2ccc(Cl)cc2)[nH][nH]c1=O)c1ccc(Br)cc1	5363

The list goes on, starting with the last two of the part before.
SMILES	Bead autofluor
CCOC(=O)[C@]12CCCC=C1N(Cc1ccco1)C(=O)[C@H](CC(=O)NCc1ccc(OC)c(OC)c1)C2	5798
O=C(Nc1c(-c2ccc(Cl)cc2)[nH][nH]c1=O)c1ccc(Br)cc1	5363
O=C1NC[C@H](CCCCN2CCN(CCc3ccccc3)C(=O)C2=O)N(CCc2ccc(O)cc2)C1=O	5797
Cc1ccc(S(=O)(=O)N2C[C@H]3N(C(=O)OC(C)C)N(C(=O)OC(C)C)C[C@H](OC(=O)NCc4ccco4)[C@@]3(O)C2)cc1	3324
COc1ccc(CNC(=O)Nc2nnc([C@@H]3C[C@H](O)[C@@H](CO)O3)s2)cc1	3856
CCCCCC(=O)N1C[C@H](n2cc(-c3ccc(F)cc3)nn2)[C@@H](O)C[C@@H]1c1ccc(OC)cc1	3342
O=C(c1cc(-c2ccncc2)nc2ccccc12)N1CCCC(C(F)(F)F)C1 (stereo unspecified)	3036
CCc1nc2ccc(C(=O)N(CC)CCN(C)C)cn2c1N(C=O)CCC(C)C	2858
COc1ccc(Cn2cc(CN3CC(N4CCCCC4)CS3(=O)=O)nn2)cc1 (stereo unspecified)	5567
Cc1cc(Cl)c2oc(C(=O)N3CCOCC3)c(C)c2c1	3455
CC1(Cc2cc(Cl)ccc2C(F)(F)F)C(=O)Nc2ccc(-c3ccc(F)c(Cl)c3)cc21 (stereo unspecified)	4057
CSc1ccc(/C=C/C(=O)OCC(=O)NC2CCCC2)cc1	3860
CC(=O)c1ccc(Nc2nc(C(N)C3CCCCC3)cs2)cc1 (stereo unspecified)	3633
CCC(CO)Nc1ccn2nc(-c3cc(OC)c(OC)c(OC)c3)cc2n1 (stereo unspecified)	2985
OC(c1ccccc1)c1nc(/C=C/c2ccc(C(F)(F)F)cc2)cs1 (stereo unspecified)	2822
Cc1ccc(-c2c(C#N)c(N)n(-c3ccc(Cl)cc3)c(=O)c2C#N)cc1	3545
O=C1OC(c2ccccc2)(N(Nc2ccccc2)c2ccccc2)c2ccccc21 (stereo unspecified)	3834
CC(=O)c1ccc(Nc2nc(CN)cs2)cc1	4081
O=C(NCc1ccccn1)[C@@H]1CCCN1C(=O)[C@@H]1CCCN1C(=O)c1ccc(Cl)cc1	4441
O=C1[C@H]2[C@@H](c3ccccc3)N[C@]3(CCCN(Cc4ccc(F)cc4)C3=O)[C@H]2C(=O)N1Cc1ccccc1	3426
CC1(C(=O)NCc2ccc3c(c2)OCO3)CCN1C(=O)Cc1cccc2ccccc12 (stereo unspecified)	2930
Cc1nccn1CCC(=O)NC1CC(C)(C)Cc2c1cnn2-c1ccccc1 (stereo unspecified)	3707
C[C@@H]1OC(C2CCCCC2)N(C)[C@H]2C[C@H]3c4[nH]c5ccccc5c4CCN3C[C@@H]12 (stereo partly specified)	6824
CCOC(=O)[C@]12CCCC=C1N(Cc1cccc3ccccc13)C(=O)[C@H](CC(=O)NCCCN1CCCC1=O)C2	5465
COc1ccc(Cc2c(-c3cccc(Cl)c3)nc3cc(C)c(Br)c(C)n23)c(C)c1	5521
N#Cc1ccc2[nH]cc(C3c4cc(F)ccc4C=C(c4ccsc4)N3c3ccc(C#CCCO)cc3)c2c1 (stereo unspecified)	4048
COc1ccccc1Cc1c(-c2ccc(Cl)cc2)nc2ccc(Cl)cn12	8283

Next part
SMILES	Bead autofluor
CCCCc1c(-c2ccccc2OC)ncn1CCc1cccc(Cl)c1	6384
O=C(Nc1ccc2nc(C(F)(F)F)[nH]c2c1)[C@@H]1O[C@H](CO)[C@@H](O)[C@H]1O	3510
COc1ccc(C(N)c2csc(Nc3ccc(C(F)(F)F)cn3)n2)cc1 (stereo unspecified)	2958
Cc1ccccc1OCCC(=O)OCC(=O)Nc1ccc(C)c(S(=O)(=O)N2CCCCC2)c1	3887
CCOc1ccc(NC(=O)CSc2nc3ccsc3c(=O)n2CCCCCC(=O)O)cc1	3812
O=C(CCC(C(=O)c1ccccc1)c1ccccc1)c1ccccc1 (stereo unspecified)	3945
COc1ccc(NC(=O)c2cc(=O)[nH]c3ccccc23)cc1S(=O)(=O)N1CCOCC1	3933
CCOc1ccccc1OCCCC(=O)Nc1cc(S(=O)(=O)N2CCCCC2)ccc1C	4090
CCN(CC(=O)Nc1ccc2c(c1)OCCO2)C(=O)/C=C/c1cc(Br)ccc1OC	3535
CCCNC(=O)C1(C)CCN(C(=O)c2ccc3ccccc3c2)C1 (stereo unspecified)	3708
CN1/C(=C/C=C/c2n(C)c3cc([N+](=O)[O-])c([N+](=O)[O-])cc3[n+]2C)C(C)(C)c2ccccc21	2852
O=C(C=Cc1ccccc1F)c1ccccc1	6121
CCCC1NC(=O)c2cccnc2-n2c1nc1ccc(C)cc1c2=O (stereo unspecified)	5077
CC(=O)Nc1ccc(NCCc2ccco2)cc1	6028
S=C(NCCc1ccccc1)N1Cc2cc(Br)ccc2-n2nncc2C1	5364

Of the compounds above, 13 contain an NH in an aromatic ring.
SMILES	Bead autofluor
COCCN(C(=O)CSc1nnc(-c2ccccc2F)o1)c1c(N)n(Cc2ccccc2)c(=O)[nH]c1=O	3639
C=CCOc1ccccc1CNn1c(C)n[nH]c1=S	3941
CC1(c2nnnn2-c2ccc3c(c2)OCCO3)CCC(=O)N1CCc1c[nH]c2ccccc12 (stereo unspecified)	5245
COc1ccc(Cl)cc1-c1cc(C(=O)NCc2ccccc2)[nH]n1	3769
CC(C)C[C@@H]1Cc2[nH]c(=S)[nH]c(=O)c2[C@H](C)O1	6031
CC(C)(C)C(=O)c1c(N)[nH]c(C(=O)c2ccccc2)c1-c1ccc(Cl)cc1	4875
COc1cccc(OC)c1C(=O)N1CCN(Cc2c[nH]c3ccccc23)CC1	4020
COc1c(C)cc(C(O)c2ncc(-c3ccccc3F)[nH]2)cc1C (stereo unspecified)	3957
O=C(Nc1c(-c2ccc(Cl)cc2)[nH][nH]c1=O)c1ccc(Br)cc1	5363
C[C@@H]1OC(C2CCCCC2)N(C)[C@H]2C[C@H]3c4[nH]c5ccccc5c4CCN3C[C@@H]12 (stereo partly specified)	6824
N#Cc1ccc2[nH]cc(C3c4cc(F)ccc4C=C(c4ccsc4)N3c3ccc(C#CCCO)cc3)c2c1 (stereo unspecified)	4048
O=C(Nc1ccc2nc(C(F)(F)F)[nH]c2c1)[C@@H]1O[C@H](CO)[C@@H](O)[C@H]1O	3510
COc1ccc(NC(=O)c2cc(=O)[nH]c3ccccc23)cc1S(=O)(=O)N1CCOCC1	3933
